CapD inh – inhibitors of Bacillus anthracis CapD enzyme | z-score (no concentration beside the values) | 140,000 tested, 0.23% active | purified CapD enzyme, fluorescence intensity read-out; stronger effect = lower value; some hits fall short of the stated cut;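 active = z-score under -4 in either of two replicates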;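 also: stock transfer was 100 nL into about 40 µL; score is relative to mean and spread of the plate; one replicate is shown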
AID504770 – growth inhibitors of E. coli YBA685 in a screen for V. cholerae RctB (chromosome II replication) inhibitors; E. coli YBA685 rctB-dependent plasmid, OD600 growth, 3 h; stronger effect = lower value; z-score (no concentration beside the values); 130,000 tested, 0.27% active;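 active = z-score under -2 on both plates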;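 also: wells of about 30 µL received 100 nL stock; score is relative to mean and SD of the test wells; the first replicate is given; strong numbers were not always called active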
* marks the source's active call; other numbers are inactive results; . = not tested or not shown; & = joins results of further samples.

Each structure is followed by: CapD inh | AID504770
- CCc1ccc(C(=O)NC(Cc2c[nH]c3ccccc23)C(=O)OCC(=O)c2ccccc2)cc1 (stereo not drawn)
  -0.41 | .
- CCOc1ncnc2c1cnn2-c1ccccc1
  . | 0.7
- O=C1OCCC1Sc1ccc(Cl)cc1 (stereo not drawn)
  0.38 | -0.5
- CNC(=O)COc1coc(CN2CCc3ccccc32)cc1=O
  . | -0.5
- N#Cc1ccccc1NC(=O)CCCc1ccccc1
  0.28 | 1.2
- COc1ccc(C2=CCCC2)cc1
  3.1 | -1.2
- CC1=C(C(=O)Nc2ccccc2)C(c2ccc3c(c2)OCO3)n2nnnc2N1 (stereo not drawn)
  -1.3 | .
- Cc1ccc(CNC(=O)C2CCCN(S(=O)(=O)c3c(C)n[nH]c3C)C2)cc1 (stereo not drawn)
  -0.43 | -0.1
- O=C(Cc1cccc(F)c1)N1CCN(CC(=O)N2CCCC2)CC1
  . | -0.65
- CCC1CCCCN1C(=O)c1cc(-c2ccc(Cl)cc2)on1 (stereo not drawn)
  -0.52 | 1.4
- O=C(CN1CCN(c2ccccc2F)CC1)C12CC3CC(CC(C3)C1)C2
  . | 0.2
- COc1cc(N(CC(=O)N2CCOCC2)S(C)(=O)=O)c(Cl)cc1Cl
  -0.25 | .
- CCOc1ccc2nc(NC3=NCCC(=O)N3)nc(C)c2c1
  . | 0.05
- CNC(=O)c1cc2sc(Cl)cc2n1C
  -0.035 | -0.4
- COC(=O)C1CCN(C(=O)COC(=O)Cc2coc3cc(C)ccc23)CC1
  . | 1.2
- CNCCOc1ccccc1
  . | 2.2
- CC1CC(C)CN(c2nc3ccccc3c(=O)n2-c2ccc(Cl)cc2)C1 (stereo not drawn)
  0.33 | -1.4
- O=C(Nc1ccccc1Cl)c1cn2ccccc2n1
  0.79 | 0.85
- CCCOc1ccc(C2C(C(=O)OC)=CN(Cc3ccc(OC)c(OC)c3)C=C2C(=O)OC)cc1OC
  0.98 | .
- O=C1CN(S(=O)(=O)c2ccccc2)c2ccccc2N1
  0.54 | -0.25
- COc1cc(OC)cc(C(=O)N2c3ccccc3N3C(c4c(C)c(Cl)c(C)c(Cl)c4C)=NON23)c1
  -0.01 | .
- O=C(N1CCOCC1)C1(c2ccccc2)CCOCC1
  0.19 | .
- O=C(CCCn1c(SCC(=O)NCCC2=CCCCC2)nc2ccccc2c1=O)NCCCN1CCOCC1
  0.75 | .
- Oc1ccccc1OCC(O)c1ccccc1 (stereo not drawn)
  -0.83 | -1.1
- COCCNC(=O)c1c[nH]c2ccc(S(=O)(=O)N3CCc4ccccc43)cc2c1=O
  0.06 | -0.9
- O=C1CC(N2CCN(S(=O)(=O)c3cccc(C(F)(F)F)c3)CC2)C(=O)N1Cc1ccccc1 (stereo not drawn)
  . | -0.6
- O=C(NCCc1ccccc1)[C@@H]1CCCN1C(=O)c1cccs1
  . | -0.5
- COc1ccc(C2CC(=O)Nc3ccccc3S2(=O)=O)cc1OC (stereo not drawn)
  . | -0.05
- CC(C(=O)N1c2ccccc2CC1C)N(C)CCOc1ccc(Cl)cc1 (stereo not drawn)
  . | -0.45
- CCc1nc(C)ccc1OCC(=O)O
  -5* | 0.5
- O=S(=O)(c1ccc2ccccc2c1)N1CCCCCC1
  . | -0.05
- CCn1cc(C(=O)OCC(=O)N2C(C)CCCC2C)c(=O)c2cc(F)c(N3CCN(C(C)=O)CC3)cc21 (stereo not drawn)
  . | -0.5
- Cc1cccn2c(=O)c(/C=C3\SC(=S)N(CC4CCCO4)C3=O)c(NCc3ccccc3)nc12 (stereo not drawn)
  -0.67 | .
- Cc1ccc(C(=O)n2nc(C)c(Sc3nccn3C)c2C)cc1
  -0.1 | -0.55
- COc1ccc2c(c1)C(C)CC(C)[N+]2(C)C (stereo not drawn)
  -0.07 | -0.5
- CCOC(=O)CN1c2ccccc2NC(=O)CC1C (stereo not drawn)
  0.18 | -0.1
- O=C1OCC2=C1C(c1ccc3c(c1)OCO3)Sc1ccccc1N2 (stereo not drawn)
  . | 0.2
- CC(C)NC(=O)Cn1c2ccccc2c2cn[nH]c(=O)c21
  -0.025 | -0.4
- CCOC(=O)c1cc(NC(=O)c2ccoc2C)cc(C(=O)OCC)c1
  -0.36 | 1.2
- CCCN1CCN(C(=O)c2sc3nc4n(c(=O)c3c2C)CCCC4)CC1
  0.71 | -0.3
- O=C1CCCc2cc(S(=O)(=O)NCC3CCN(CCc4cccs4)CC3)ccc2N1
  0.18 | -0.2
- COc1ccc(C2(c3ccccc3F)C=Cc3c(ccc4ccccc34)O2)cc1 (stereo not drawn)
  -0.16 | .
- Cc1ccc(C)c2[nH]c(=O)c(CCNC(=O)C(C)(C)Oc3ccc(Cl)cc3)cc12
  -0.44 | -0.85
- CN1C(=O)/C(=C/c2cccs2)SC1=S
  . | 1.4
- CC(C)c1ccc2oc(-c3ccc(N)cc3)nc2c1
  53 | 1.8
- COC(=O)C(F)C(=O)OC
  . | 0.8
- CCN(C(=O)CSc1nc2nc(C)cc(C)n2n1)c1ccccc1
  1.6 | 0.5
- COC(=O)C1=C(CSc2nnc(N)s2)NC(=O)NC1c1cccc(OC)c1 (stereo not drawn)
  . | -0.3
- CCS(=O)(=O)N1Cc2ccccc2CC1C(=O)NC1CCCCCC1 (stereo not drawn)
  . | 1.5
- CC(=O)Nc1ccc(OCCCCCCOc2ccc(Cl)cc2Cl)cc1
  -0.02 | .
- COc1ccc(N=C2C(=O)N(CN3CCOCC3)c3ccccc32)cc1
  -0.69 | 0.35
- Cc1nc(N2CCN(c3ccccn3)CC2)c2c(C)c(C(=O)Nc3ccccc3F)sc2n1
  -0.48 | .
- Cn1nc(C(C)(C)C)cc1C(=O)Sc1ccccc1
  0.035 | 0.7
- COc1ccc(C=NN2CCN(Cc3ccccc3)CC2)c(OC)c1OC
  -0.09 | 0.25
- Cc1cnc(C(=O)OCC(=O)c2ccc(Cl)s2)cn1
  . | -1.1
- Cc1ccc2c(c1C)NC(=O)CC2c1ccc(O)cc1 (stereo not drawn)
  -0.67 | -1.2
- CCOC(=O)c1cc2c(C)nn(-c3ccccc3)c2s1
  -0.11 | -0.1
- Cc1c(C(=O)CSc2ncc(C#N)c(N)n2)c2ccccc2n1C
  . | 0.15
- Cc1ccc(NC(=O)c2ccccc2-n2cccc2)cc1
  -0.62 | 0.8
- COc1ccc([N+](=O)[O-])cc1C1N(c2cccc(C)c2)CCN1c1cccc(C)c1
  -0.41 | .

The list goes on:
SMILES	CapD inh	AID504770
COc1cc(C=Nc2ccc(C)cc2)ccc1OC(C)=O	-1.1	-0.15
COc1ccc(C2=NN(C(=O)CSc3nnc(CNC(=O)c4cccc(C)c4)n3C)C(c3ccc(OC)cc3)C2)cc1 (stereo not drawn)	1.4	.
CC(=O)Nc1ccc(NC(=O)c2ccccc2C(=O)O)cc1	-0.15	.
CN(C)C=Nc1ccc(S(=O)(=O)N(C)c2nccs2)cc1	-0.62	1.3
Cc1nn(-c2ccccc2)c2nc(-c3cccs3)cc(C(=O)NC(C)(C)C)c12	.	0.3
Fc1ccc(CNC2CCCC2)cc1	.	-1.4
N#C/C(=C\c1ccc(C#N)cc1)c1ccccn1	-0.6	.
ICC1COC[N+]12CCOCC2 (stereo not drawn)	-0.02	-0.75
CCOC(=O)c1c(/N=C/c2c(O)n(C)c3ccccc23)sc2c1CCC2	-0.85	0.05
N#Cc1cccc(NC(=S)NC2CC2)c1	.	-0.8
O=C(/C=C/c1cn(-c2ccccc2)nc1-c1ccc(F)cc1)NCc1cccnc1	2.3	-0.8
COc1ccc(C2C(C#N)=C(N)Oc3n[nH]c(C)c32)cc1COc1ccccc1[N+](=O)[O-] (stereo not drawn)	-0.71	.
Cc1ccc(N(CC(=O)Nc2ccccc2C(=O)NCc2ccco2)S(C)(=O)=O)cc1Cl	.	1.2
C=CCn1c(C(C)C)nc2ccccc21	.	0.8
N#CCc1ccc(OC(F)F)cc1	.	0.15
FC(F)(F)Oc1ccc(-n2cc3ccsc3c2)cc1	0.06	0.2
CCN(CC(=O)N1N=C(c2ccccc2)CC1c1ccc(OC)cc1)Cc1nc2ccccc2c(=O)[nH]1 (stereo not drawn)	.	0.25
c1cc2c(cc1CNc1ccc(N3CCCC3)cc1)OCO2	.	-0.7
CCC(=O)Nc1sc2c(c1C(=O)Nc1ccc(Cl)cc1)CCC2	0.055	.
Cc1cc(/C=C(\C#N)C(=O)NCc2cccs2)c(C)[nH]1	.	0.2
Cn1nc(N)c2cc(S(C)(=O)=O)c(-c3ccccc3C(F)(F)F)nc21	-0.82	.
COc1ccc(S(=O)(=O)n2nnc3ccccc32)cc1C(C)(C)C	-0.16	0.75
Cc1cc(C)nc(OC(Cc2ccncn2)c2cccc(C(F)(F)F)c2)n1 (stereo not drawn)	-0.41	.
CCCC(=O)Nc1ccccc1OC(F)(F)F	0.6	0.2
CCOC(=O)Nc1ccc(Br)cn1	-1.2	1.3
CCCN(CCC)C(=O)C1=C(C)C(=O)OC12CCCCC2	2.8	-0.85
CCSc1nc(C)cc(=O)[nH]1	.	-1.1
COc1cccc(/C(C#N)=C/O)c1	-0.33	-1.1
CS(=O)(=O)c1sc(C(=O)O)c2c1C=CCC2	1.8	1.5
CSC1=NC(=Nc2cccc(C)c2)C2(CCCCC2)N1c1ccccc1C	-0.33	.
CCN(CC(=O)NCc1cccs1)C(=O)c1cccc(F)c1	.	-0.3
FC(F)Oc1ccccc1NC(=S)Nc1cccnc1	.	1.5
O=C(c1ccc2c(=O)n(Cc3ccc4c(c3)OCO4)c(=S)[nH]c2c1)N1CCN(c2cccc(Cl)c2)CC1	-0.95	.
COc1ccc(C(=O)c2oc3ccccc3c2NC(=O)c2ccco2)cc1	8.4	-0.75
O=C(CSc1nnc(-c2ccccc2)o1)N1c2ccccc2CCc2ccccc21	0.23	-0.35
Cc1c(S(=O)(=O)O)oc2c1C(=O)C(=O)c1c-2ccc2c1CCCC2(C)C	.	0.25
Cc1ccc(Cl)cc1N1C(=O)C2C3c4ccccc4C(C)(c4ccccc43)C2C1=O (stereo not drawn)	-0.47	.
Cc1ccc(S(=O)(=O)NC(=O)Nc2c(Cl)cc(Cl)cc2C(F)(F)F)cc1	0.56	.
Cc1oc2ccc(NS(=O)(=O)c3cccs3)cc2c1C(=O)OC(C)C	-0.52	-0.75
COc1ccc(CCNC(=O)CSc2nc3n[nH]c(C)c3c(=N)n2-c2cccc(Cl)c2)cc1OC	-0.075	.
CCN1CCN(Cc2c(O)ccc3c(=O)c(Oc4cccc(C)c4)c(C(F)(F)F)oc23)CC1	-1.2	.
Cc1ccc(S(=O)(=O)n2nnc3cc(Cl)ccc32)cc1C	-0.29	.
O=C(O)c1cc(=O)[nH]c2ccccc12	19&20	-0.15&-0.2
CC(C)c1nc2ccccc2n1Cc1ccccc1	-0.01	0
CCOC(=O)C1=C(c2ccc(OC)cc2)NC(=O)NC1c1ccc(Br)cc1 (stereo not drawn)	-0.11	.
CCOC(=O)c1cc2c(NCc3ccc(Cl)cc3Cl)nccc2nc1C(F)(F)F	13	0.25
COc1cccc(NC(=O)c2oc3ccc(S(=O)(=O)N4CCCCC4)cc3c2C)c1	2.3	0.7
CCCn1c(N2CCCCC2)nc2c1c(=O)[nH]c(=O)n2C	0.24	-0.1
CCOc1ccc(-n2c(=S)sc3c2nc(SCC(=O)N2CCCC2)n2c4ccccc4nc32)cc1	-0.25	.
CCCNC(C)(C)COC(=O)c1ccccc1	0.035	.
CSCCOC(=O)C1=C(C)NC(=O)NC1c1ccc(OCc2ccccc2)cc1 (stereo not drawn)	-0.39	.
O=C(NCCc1ccccc1)c1ccc(Cl)nc1	.	-0.55
CCOc1ccc(CC(=O)NCc2ccc3[nH]c(C)cc3c2)cc1	-0.71	1.4
N=C1C(c2nc3ccccc3[nH]2)=C(O)CN1CCCN1CC(O)=C(c2nc3ccccc3[nH]2)C1=N	.	-0.95
CC1=C(C(=O)Nc2nc3ccccc3s2)C(c2ccccc2Cl)C2=C(CCCC2=O)N1 (stereo not drawn)	41	.
CC(C)(C)c1ccc(C(=O)Nc2ccc(-c3nnc4n3CCCCC4)cc2)cc1	-0.27	1.7
Cc1ccc(CNC(=O)c2ccc3c(c2)[nH]c(=S)n2c4ccccc4nc32)cc1	0.76	.
O=C1CCCN1CCCNc1nn2nnnc2c2ccccc12	-1.3	0
CCn1c2c(c3cc(Br)ccc31)CCC/C2=N\O	0.085	0.85
CCN(c1ccccc1)c1ncnc2c1cnn2-c1ccccc1	-0.22	-0.75

Entries from the list above with a CF3 group:
SMILES	CapD inh	AID504770
O=C1CC(N2CCN(S(=O)(=O)c3cccc(C(F)(F)F)c3)CC2)C(=O)N1Cc1ccccc1 (stereo not drawn)	.	-0.6
FC(F)(F)Oc1ccc(-n2cc3ccsc3c2)cc1	0.06	0.2
Cn1nc(N)c2cc(S(C)(=O)=O)c(-c3ccccc3C(F)(F)F)nc21	-0.82	.
Cc1cc(C)nc(OC(Cc2ccncn2)c2cccc(C(F)(F)F)c2)n1 (stereo not drawn)	-0.41	.
CCCC(=O)Nc1ccccc1OC(F)(F)F	0.6	0.2
Cc1ccc(S(=O)(=O)NC(=O)Nc2c(Cl)cc(Cl)cc2C(F)(F)F)cc1	0.56	.
CCN1CCN(Cc2c(O)ccc3c(=O)c(Oc4cccc(C)c4)c(C(F)(F)F)oc23)CC1	-1.2	.
CCOC(=O)c1cc2c(NCc3ccc(Cl)cc3Cl)nccc2nc1C(F)(F)F	13	0.25

From PubChem
